D2 agonist: Beta-Arrestin HTS for Positive Allosteric Modulators of the Human D2 Dopamine Receptor: Agonists. D(2) dopamine receptor (Homo sapiens), P14416. 0.084% of 360,000 active. activation, % (test concentration not listed). DiscoveRx PathHunter D2 beta-arrestin, luminescence, 90 min; 100% = 57 uM dopamine signal; in the data active = activation above about 40%; inconclusive = about 15% to 40%; inactive = below about 15%; further: compound concentration not given in the record; the text of the record calls up to 30% inactive
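DiscoveRx PathHunter D2 beta-arrestin cells (2,100/well) attached overnight, then compound-stimulated 90 min at 37 C in HBSS/10 mM HEPES/0.1% Tween-20 buffer; beta-galactosidase complementation read by luminescence after 1 h at ambient temperature. Dopamine 57 uM final (EC100) as control.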
Six1-Eya2 blk: qHTS Assay for Inhibitors of the Six1/Eya2 Interaction. Homeobox protein SIX1 (Homo sapiens) + Protein phosphatase EYA2 (Homo sapiens), …. AlphaScreen GST-Six1/His-Eya2 binding, biochemical; hits give low values; control for the full effect not named in the record. activity change, % (concentration not given with the values). 0.56% of 360,000 active. AID 651725, 2012; in the data active = activity change below about -65%; inconclusive = about -30% to -65%; inactive = above about -30%; further: on the % scale 0 is the no-effect control and ±100 the full control effect
Target sequence (O00167 whole entry, looked up): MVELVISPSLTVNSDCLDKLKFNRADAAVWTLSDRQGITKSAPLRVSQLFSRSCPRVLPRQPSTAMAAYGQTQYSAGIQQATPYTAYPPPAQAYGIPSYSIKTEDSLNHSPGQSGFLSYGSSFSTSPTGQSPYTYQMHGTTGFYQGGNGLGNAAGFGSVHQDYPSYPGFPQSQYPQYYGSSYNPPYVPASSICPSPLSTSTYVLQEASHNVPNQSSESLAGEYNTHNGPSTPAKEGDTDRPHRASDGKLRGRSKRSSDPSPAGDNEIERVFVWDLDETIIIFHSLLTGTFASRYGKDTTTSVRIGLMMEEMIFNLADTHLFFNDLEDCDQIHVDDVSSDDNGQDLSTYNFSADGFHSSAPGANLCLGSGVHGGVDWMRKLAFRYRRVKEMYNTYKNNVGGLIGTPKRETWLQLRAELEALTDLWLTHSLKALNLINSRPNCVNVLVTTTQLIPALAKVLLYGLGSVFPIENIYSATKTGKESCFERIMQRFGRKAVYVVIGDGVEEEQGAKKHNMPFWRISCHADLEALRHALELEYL
Target sequence (Q15475 whole entry, looked up): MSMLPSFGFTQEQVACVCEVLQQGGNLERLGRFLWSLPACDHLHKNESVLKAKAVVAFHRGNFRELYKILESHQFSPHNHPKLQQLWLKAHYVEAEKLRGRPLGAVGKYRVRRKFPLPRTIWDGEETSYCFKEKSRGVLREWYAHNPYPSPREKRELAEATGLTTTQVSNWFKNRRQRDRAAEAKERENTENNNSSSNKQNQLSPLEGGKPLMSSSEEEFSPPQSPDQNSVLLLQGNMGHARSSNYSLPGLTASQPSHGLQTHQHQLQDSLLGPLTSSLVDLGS
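GST-Six1 + His-Eya2 (5X stock: 250/500 nM); Tris pH 8.0, 300 mM NaCl, 0.05% BSA, 0.02% Tween 20; GSH donor/Ni acceptor beads; 1 h 37 °C dark; AlphaScreen readout.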
TRPML1 blocker: qHTS for Inhibitors of the Human Mucolipin Transient Receptor Potential 1 (TRPML1); AID 624415, 2012; TRPML1-inducible cells, Ca2+ dye fluorescence, FDSS; hits give low values; inhibition of EC80 agonist-evoked calcium signal; 0.02% of 390,000 active; Mucolipin-1 (Homo sapiens), Q9GZU1; activity change, negative = inhibition, % (concentration not given with the values); in the data active means activity change below about -50%; inconclusive means about -30% to -50%; inactive means above about -30%;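 further: stimulus is agonist 54-4 at its EC80 concentration; on the % scale 0 is the no-effect control and ±100 the full control effect; compound concentration not given in the record; the text of the record puts the active cut at -80%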
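Tet-induced TRPML1-DL cells loaded with Ca8 no-wash calcium dye were read kinetically on FDSS. Compound addition was followed by EC80 agonist 54-4 (4 uM final); inhibition was read over 110 s.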
D2 potentiator: Beta-Arrestin HTS for Positive Allosteric Modulators of the Human D2 Dopamine Receptor: Potentiators | D(2) dopamine receptor (Homo sapiens), P14416 | DiscoveRx D2 beta-arrestin cells, luminescence, 90 min; 100% = 57 uM dopamine signal | potentiation, % (concentration not given with the values) | 0.23% of 360,000 active; active = potentiation of 50% or more; inconclusive = 30% to 50%; inactive = 30% or less;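 further: compound concentration not given in the record; tested on top of an EC20 dose of dopamine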
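PathHunter beta-arrestin assay in DiscoveRx D2 cells. Compounds were added with an EC20 of dopamine (50 nM final) for 90 min at 37 deg C. Luminescence was read 1 h after detection reagent, with 57 uM dopamine as the EC100 control.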
PINK1 expr mod: A Quantitative High throughput Screen to Identify Chemical Modulators of PINK1 Expression; AID 624263, 2012; Potency, µM (highest dose often 76.6 µM), for inactives: top-dose activation (PINK1 increase), hits mostly activators; 0.2% of 410,000 active; PINK1 immunofluorescence, high-content cytometry, 24 h; active = well fitted activation curve with a large enough effect; inconclusive = small, poorly fitted or top-dose-only effect; inactive = flat fitted curve, though single readings scatter; cell line not stated here;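 further: potency means the concentration at half of the fitted maximal effect; % of control where 0% means no effect; nearly all actives have a fitted effect of over 65% in size; a mitochondrial uncoupler was the plate control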
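Cells are seeded, rested 12 hours, then given compound at five concentrations or DMSO for 24 hours. After fixation, blocking and antibody staining, PINK1 amount and mitochondrial localization are scored; CCCP serves as control.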
TRPML1 ag: qHTS for Agonists of the Human Mucolipin Transient Receptor Potential 1 (TRPML1). Mucolipin-1 (Homo sapiens), Q9GZU1. TRPML1-expressing cells, Ca2+ dye fluorescence, FDSS; host cell line not named in the record; reference of the full effect not given here. activation, % (test concentration not listed). 0.12% of 410,000 active; in the data active = activation above about 50%; inconclusive = about 30% to 50%; inactive = below about 30%; further: 0% is about no effect; the text of the record puts the active cut at 80%
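TRPML1-DL cells, Tet-induced overnight (~16 h, 37 degrees C), loaded 45-90 min at room temperature with Ca8 no-wash calcium dye plus quencher. FDSS fluorescence: 10 s baseline, compound pin-transfer, 110 s agonist read, then EC80 54-4 (4uM final) and 110 s antagonist read.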
* hit, by the source's call; u = inconclusive; x = no result given; [ ] = remark or other dose.

molecule,Six1-Eya2 blk,D2 agonist,PINK1 expr mod,TRPML1 ag,D2 potentiator,TRPML1 blocker
CNS(=O)(=O)c1cccc(C(=O)OCC(=O)N2c3ccccc3NC(=O)C2(C)C)c1,-1,-1.7,-1.5%,0.0,-4,25
O=C(CCSc1ccccc1)NNC(=O)c1ccccc1F,-3,0.3,2.2%,-0.8,-5,3
COc1ccc(-c2csc(C(O)c3ccc(F)c(F)c3)n2)cc1 (stereo unspecified),22,-3.4,9.3%,-0.1,-9,x
CC(C)(C)n1nc2c(c1NC(=O)Cc1ccc([N+](=O)[O-])cc1)CS(=O)(=O)C2,3,6.6,0.9%,-0.2,-3,-13
O=C(CCn1c(=O)[nH]c2ccsc2c1=O)N1CC(=O)N(CCc2ccccc2)C(=O)C1,-4,-3.1,u,-0.6,-8,6
CC(C)OC(=O)CSc1nnc(COc2ccc([N+](=O)[O-])cc2)n1C,-3,-1.4,3.6%,3.3,-3,20
COc1ccc(CCNS(=O)(=O)CCNC(=O)c2ccc(OC)cc2)cc1,3,-5.7,4.8%,0.9,0,23
N#C/C(=C\c1ccccc1OCc1ccc(C(=O)O)cc1)C(=O)Nc1ccc(O)cc1,-4,0.3,1.8%,0.4,1,8
O=C(Nc1ccc(O)cc1)/C(=C/c1ccco1)NC(=O)c1ccccc1,4,-3.5,-1.5%,-0.6,-15,-4
CSc1ccc(CCNC(=O)c2ccc(-n3c(C)cc4c3CCCC4)cc2)cc1,x,x,1.2%,-0.3,x,-19
Cc1ccc(CN2C(=O)CCC2C(=O)NCC2CCCO2)cc1 (stereo unspecified),1,-3.0,0.7%,-0.2,9,9
CCOC(=O)CN1CC23C=CC(O2)C(C(=O)Nc2ccc(F)c(C)c2)C3C1=O (stereo unspecified),2,-1.5,-1.4%,2.3,-11,26
COc1ccc(/C=C(\NC(=O)c2ccco2)C(=O)Nc2ccc(C(C)=O)cc2)cc1,10,-1.8,0.5%,0.0,-17,-8
COc1cccc(N2CCN(CC(=O)N3CCN(S(=O)(=O)c4ccc(Cl)cc4)CC3)CC2)c1,-12,u,0.7%,0.8,-23,0
Cc1ccc2c(Cn3ccnc3)cc(=O)oc2c1C,6,-1.9,1.5%,1.0,-2,-20

Some of the entries so far, with two lines to a compound:
Values run as follows: Six1-Eya2 blk, D2 agonist, PINK1 expr mod, TRPML1 ag, D2 potentiator, TRPML1 blocker
O=C(CCn1c(=O)[nH]c2ccsc2c1=O)N1CC(=O)N(CCc2ccccc2)C(=O)C1
→ -4, -3.1, u, -0.6, -8, 6
N#C/C(=C\c1ccccc1OCc1ccc(C(=O)O)cc1)C(=O)Nc1ccc(O)cc1
→ -4, 0.3, 1.8%, 0.4, 1, 8
COc1ccc(/C=C(\NC(=O)c2ccco2)C(=O)Nc2ccc(C(C)=O)cc2)cc1
→ 10, -1.8, 0.5%, 0.0, -17, -8

Following part.
molecule,Six1-Eya2 blk,D2 agonist,PINK1 expr mod,TRPML1 ag,D2 potentiator,TRPML1 blocker
COc1ccc(/C=C/c2nc(C#N)c(NCc3ccc(F)cc3)o2)cc1OC,x,x,2.1%,0.7,x,9
COc1ccc(CNc2nc(-c3ccco3)nn2S(=O)(=O)c2ccc(Cl)cc2)cc1OC,x,x,-0.5%,0.4,x,8
N#C/C(=C\c1ccc(-c2cccc([N+](=O)[O-])c2)o1)C(=O)N1CCOCC1,-18,0.1,-1.6%,1.6,-8,21
CCCCOCCO,-7,-4.3,2.2%,-0.6,-8,4
COc1cccc(/C=N/NC(=O)CSc2nnc(C)n2-c2ccccc2)c1OC,12,0.4,-1.9%,0.2,-28,u
COC(=O)[C@H](C)NC(=O)Nc1cccc(C)c1,14,-0.8,2.3%,-1.0,-4,-9
CCc1nc2ccc(C(=O)NCCOc3ccc(OC)cc3)cn2c1N(C)Cc1ccc(N(C)C)cc1,u,12,2.8%,-1.1,6,x
Cc1onc(-c2ccccc2)c1C(=O)OCc1nnc(-c2ccccc2)o1,-3,-1.8,-0.9%,1.6,1,4
CC(=O)Oc1cc(O)c2c(=O)c(OC(C)=O)c(-c3ccc(OC(C)=O)c(OC(C)=O)c3)oc2c1,u,12,-1.3%,x,30,x
Cc1ccc(/C=N\NC(=O)c2cncc(Br)c2)o1,-12,-3.6,3.3%,-0.2,-6,-1
CC(C)C(c1nnnn1Cc1ccco1)N1CCN(C2CCCC2)CC1 (stereo unspecified),3,-3.1,-1.0%,0.4,4,-19
CC1CC(C)CN(c2nc(N(C)c3ccccc3)nc(N)c2[N+](=O)[O-])C1 (stereo unspecified),-5,-2.7,5.4%,2.4,-5,14
CCCNC(=O)CN1C(=O)c2c(c3ccccc3n2C)C1c1ccc(OC)cc1 (stereo unspecified),x,x,-0.5%,1.5,x,12
COc1ccc(OC)c(NC(=O)CN2CCCN(Cc3ccccc3Cl)S2(=O)=O)c1,x,x,0.8%,2.4,x,63
O=C(c1ccc(F)cc1)N(Cc1ccco1)C1CCS(=O)(=O)C1 (stereo unspecified),0,-0.5,-1.0%,1.3,-14,11
CC1(C)COC(/C=C/c2cccc([N+](=O)[O-])c2)=N1,10,-21,-1.9%,0.4,-12,-7
COc1ccc(N(C)C(=O)Cn2c(=O)oc3ccccc32)c(OC)c1,6,-1.7,-0.8%,0.5,-3,6
O=C(CN1CCN(c2ccccc2)CC1)NC(=O)NCc1ccco1,-9,1.5,2.2%,-0.7,0,-10
c1ccc(COC2CCCN(Cc3nc(-c4cnccn4)no3)C2)cc1 (stereo unspecified),-3,5.3,-0.6%,0.3,-1,15
O=C(O)c1ccc(-n2cccc2/C=C2/NC(=O)N(c3cccc(Cl)c3)C2=O)cc1,u,-4.1,1.1%,0.9,-8,-6
O=C(CN(C(=O)CCC(=O)Nc1nccs1)c1ccc2c(c1)OCO2)NCc1ccc(F)cc1,-6,2.2,7.3%,-0.3,-7,0
NC(=O)C1CCN(S(=O)(=O)c2cc3c4c(c2)CCN4C(=O)CC3)CC1,2,-5.7,-3.0%,0.5,4,2
Cc1ccc(-c2nn3c(-c4ccc(C)cc4)nnc3c3ccccc23)cc1,x,x,-1.0%,-0.6,x,7
CC(C)c1ccc2[nH]c3nc(SCC(=O)N4CCOCC4)nnc3c2c1,-3,3.7,1.4%,0.7,-2,-8
C/C(CC(=O)Nc1ccc(C)c(Cl)c1)=N\NC(=O)c1ccco1,-4,-0.8,0.0%,0.0,-8,3
O=c1oc2ccccc2cc1N1CCOCC1,-1,-3.1,6.6%,0.0,-4,-5
O=C(CC(=O)c1ccccc1)CC(O)(C=Cc1ccccc1)c1ccccc1 (stereo unspecified),-1,0.0,11%,0.1,-2,4
Cc1ccc(NC(=O)CSc2nnc(-c3ccccc3C)o2)cc1C,4,0.3,1.6%,3.1,-20,-7
COC(=O)c1ccc(N2CCN(C(C)=O)CC2)c(NC(=O)COc2ccccc2C)c1,2,-4.2,-0.4%,0.0,-2,4
O=C(N/N=C/c1cccnc1)c1ccccc1OCc1ccc(Br)cc1,-15,-4.6,0.6%,1.1,-6,12
COc1ccccc1N1CCN(CC(=O)Nc2c(C)n(C)n(-c3ccccc3)c2=O)CC1,3,-5.7,0.5%,-0.2,-14,0
CN(Cc1ccccc1)C(=O)c1ccc(NC2=NC3CS(=O)(=O)CC3S2)cc1 (stereo unspecified),4,-5.9,-0.4%,-0.2,-5,1
CCOCCn1c(=O)c2c(nc3n2CCN3c2ccc(CC)cc2)n(C)c1=O,-4,-3.6,2.4%,0.0,-4,-4
CC(=O)Nc1ccc(S(=O)(=O)NCCc2cn3nc(C)c(C)nc3n2)cc1,-6,1.5,-0.4%,0.0,-2,-5
CCc1ccc([C@@H]2CC(=O)[C@@H]3CN(S(=O)(=O)c4ccc(Cl)cc4)[C@H](c4ccc(C)cc4)C[C@@H]3N2S(=O)(=O)c2ccc(C)cc2)cc1,0,-3.1,4.0%,-0.3,-1,3
Cc1ccc(NC(=O)COC(=O)c2ccc(=O)n(Cc3ccccc3)n2)cc1F,4,1.4,3.9%,-1.1,-10,-16
CC(C)N1CCC(C)(C(=O)Nc2ccccc2Oc2ccccc2)C1 (stereo unspecified),12,-3.6,4.3%,-0.7,-8,x
N#Cc1c(NC(=O)CSc2nc(N)cc(=O)[nH]2)sc2c1CCCC2,0,0.3,6.0%,-0.4,-5,3
Cc1cccc(N=Cc2cc3c(cc2[N+](=O)[O-])OCO3)c1,-16,3.4,4.1%,0.0,21,0
C=CCNC(=O)/C(=C\c1ccc([N+](=O)[O-])cc1)NC(C)=O,2,-2.2,1.3%,0.6,u,-16
CNS(=O)(=O)c1ccc(CNC[C@H]2O[C@@H](n3ccc(N)nc3=O)[C@H](O)[C@@H]2O)cc1,2,-11,0.3%,-0.2,-6,3
CCOC(=O)C1CCCN(CC(O)COc2ccccc2C(C)=O)C1 (stereo unspecified),8,-1.2,-6.4%[38.3 µM],-0.3,-14,6
CC(=O)N1CCN(Cc2cc(=O)n3cc(Cl)c(C)c(Cl)c3n2)CC1,3,0.0,1.5%,0.9,1,22
COc1ccc(S(=O)(=O)NCCc2csc3nc(-c4ccccc4)nn23)cc1OC,x,x,0.7%,1.3,x,-24
Cc1ccc(OCC(=O)N2CCCCCCC2)cc1,1,4.0,-0.1%,0.6,-10,27
NC(=O)COC(=O)c1cccc(S(=O)(=O)N2CCCCC2)c1,9,1.7,1.7%,0.4,-1,-11

Screening results deposited in PubChem BioAssay by National Center for Advancing Translational Sciences (NCATS).
